# MgrA DNA FP – S. aureus MgrA activity modulators, primary screen, biochemical, S. aureus Newman, fluorescence polarization; AID 602314, 2012; inhibition, %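 (about 10 µg/mL by stock and volumes)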; actives 0.13% (n = 84,000); MgrA-DNA binding;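 active = above 50% in either of two replicates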;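 note: 0% = protein plus DNA without compound and 100% = DNA alone without protein; higher means less MgrA bound to DNA so lower polarization; one replicate is shown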
# Sa helicase inh – inhibitors of S. aureus replicative helicase, primary screen, biochemical, fluorescence unwinding readout | purified S. aureus helicase, fluorescence unwinding assay; about half of the hits fall short of the stated cut | inhibition, %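 (tested at about 80 µM)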 | actives 0.05% (n = 120,000) | AID 485395, 2010;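 active = both duplicates at 50% or more, or one of them with a favoured structure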;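 note: 0% = mean of negative control wells and 100% = mean of positive control wells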
# * = called active by the depositor; · = not tested or not shown. Some of the compounds tested, so the mix of outcomes need not match the whole.
Structure,MgrA DNA FP,Sa helicase inh
COC(=O)c1sccc1NC(=O)c1cc(S(=O)(=O)C(C)C)c(SC)s1,-1.3,·
COC(=O)N/N=C/c1ccc(C(C)C)cc1,·,12.0
NN1CC(=O)N(c2ccc(Cl)cc2)CC1=O,·,3.0
COc1ccc(C(=O)NC(=S)Nc2ccc(NC(=O)c3ccco3)cc2)cc1Cl,0.0,1.0
CCCCn1c(NCc2cccs2)nc2ccccc21,·,6.0
O=C(c1ccc(COc2c(F)c(F)cc(F)c2F)o1)N1CCN(c2ccc(Cl)cc2)CC1,·,20.0
CCOC(=O)c1cc2sccc2n1CC(=O)NC1CCC(C)CC1 (centres undefined),0.7,-1.0
CCS(=O)(=O)c1nnnn1-c1ccccc1S(C)(=O)=O,-0.7,3.0
Cc1ccc2cc(CCNC(=O)c3cc4ccccc4oc3=O)c(=O)[nH]c2c1C,·,-3.0
CCOC(=O)c1cnn(-c2nc(-c3ccccc3)cs2)c1C(F)(F)F,-1.6,·
COc1ccc2cc(CCNC(=O)COc3ccccc3)c(=O)[nH]c2c1,·,-8.0
Cc1cc(=O)c2nncn2[nH]1,0.0,6.0
COc1cccc(NC(=O)Cn2c(=O)n(C(C)C)c(=O)c3oc4ccccc4c32)c1,·,12.0
COC(=O)C(Cc1csc2ccc(Cl)cc12)NC(=O)c1ccccc1 (centres undefined),-1.6,·
O=C(Cn1c(=O)sc2ccccc21)NCc1ccccn1,2.1,14.0
CSc1n[nH]c(-c2cccc(Cl)c2)c1C#N,-1.7,·
Cc1ccccc1-n1c(O)c(C=NCC2CCCO2)c(=O)[nH]c1=S (centres undefined),-0.2,14.0
CCC1CCCCN1C(=O)COC(=O)c1cccs1 (centres undefined),·,-13.0
CCOc1ccc(-c2nnc3ccc(SC)nn23)cc1,·,-23.0
COC(=O)c1ccc(COC(=O)c2cc3c(s2)CCC(C)C3)o1 (centres undefined),·,-7.0
Cc1cccc(C(CC(=O)NCc2cccs2)n2cccc2)c1 (centres undefined),·,18.0
COC(=O)c1ccc(-c2nc(-c3cccs3)no2)cc1,·,20.0
CNC(=O)COC(=O)CN1C(=O)c2ccccc2C1=O,·,-17.0
CC1(NC(=O)Cc2n[nH]c(=O)c3ccccc23)CCS(=O)(=O)C1 (centres undefined),·,-4.0
N#CC1=C(SCC(=O)Nc2ccc(F)cc2)NC(=O)C(C#N)C12CCCCC2 (centres undefined),1.1,5.0
CC(C)CCn1nnnc1CN1CCN(C(=O)c2ccco2)CC1,-1.1,1.0
S=c1[nH]nc(Cc2ccccc2)n1C1CCCCC1,·,13.0
O=C(CSc1ccccc1)Nc1ccc2c(c1)OCO2,2.1,-9.0
CC(C)CNC(=O)c1cc2n(n1)C(C(F)(F)F)CC(c1ccco1)N2 (centres undefined),-2.3,1.0
COC(=O)c1c(C)[nH]c(C)c1/C=N/OC(=O)c1cccs1,·,-17.0
O=C(CSc1nnc2sc3ccccc3n12)N1CCCC1c1ccc2c(c1)OCCO2 (centres undefined),·,19.0
O=S(=O)(Cc1nc(COc2c(Cl)cccc2Cl)no1)c1ccc(Cl)cc1,·,24.0
CC(=C\c1ccccc1)/C=C1/SC(=O)N(C(C)C)C1=O,-0.5,4.0
Nc1ncc(Br)cc1S(=O)(=O)NCCc1ccccc1,1.1,10.0
CC(=O)N1CCc2ccccc2C1,3.3,-17.0
CCNC(=S)NCCc1ccc(Cl)cc1,·,34.0
CC(=O)Nc1ccc2c(c1)ncn2C1CCCCC1,-1.8,-2.0
O=C(NC1Cc2ccccc2C1)c1ccc2c(c1)OCCCO2,-0.5,·
COc1ccc(CN(C)c2nn(C)c(=O)n(C)c2=O)cc1OC,·,7.0
COc1ccc(NC(=O)C2CCN(C(=O)c3cccc(OC)c3)CC2)cc1,·,-19.0
COc1ccc(N2CCN(S(=O)(=O)/C=C/c3ccccc3)CC2)cc1,2.5,1.0
CCCCNC(=O)Cc1csc(-c2ccccc2)n1,·,-21.0
Cc1oc(-c2ccccc2)nc1Cn1cccc1C1=NC(c2ccccc2)CO1 (centres undefined),-0.2,14.0
O=C(Cn1nc(Cc2cccnc2)c2ccccc2c1=O)Nc1cccnc1,·,15.0
CNC(=O)c1cccc2c1-c1ccccc1C2=O,-3.8,·
O=C(COC(=O)/C=C/c1ccccc1)NC1CCS(=O)(=O)C1 (centres undefined),·,1.0
CCCCc1ccc(N2C(=NC(=O)CC)SC3CS(=O)(=O)CC32)cc1 (centres undefined),·,-1.0
Cc1cc(C(=O)NN2CCN(C)CC2)cs1,-1.4,10.0
Oc1c(Cl)cc(Cl)cc1C=Nc1ccc2nc[nH]c2c1,0.4,·
Fc1ccccc1NC(=S)N1CCCCC1,0.8,·
N#Cc1cnn(-c2ccc(F)cc2)c1NC(=O)C1CCCCC1,-1.8,·
Cc1oc2ccc(O)c(CN3CCCC3)c2c1C(=O)NC1CCCCC1,·,10.0
NNC(=O)c1cccc(Cn2cccn2)c1,-0.5,2.0
COc1ccc2cc(C=NCc3ccc(C)cc3)c(N3CCCCC3)nc2c1,-0.4,2.0
CCOC(=O)CN1C(=O)S/C(=C\c2ccc(-c3ccc(Cl)cc3Cl)o2)C1=O,-2.5,11.0
OC(CN1CCN(c2ccccc2)CC1)c1ccc2c(c1)CCN2 (centres undefined),·,3.0
C=CCn1c(N)cc(=O)nc1SC(C)C(=O)Nc1ccccc1 (centres undefined),0.5,12.0
COc1ccccc1N=C1SCC(=O)N1Cc1ccco1,-1.2,·
Cc1ccc(-c2nnc(N3CCN(S(C)(=O)=O)CC3)c3ccccc23)cc1,-2.9,2.0
FC(F)(F)c1ccc(N2CCCN(C(=S)Nc3cccnc3)CC2)nc1,·,-17.0

# (listing goes on)
Structure,MgrA DNA FP,Sa helicase inh
O=S(=O)(c1ccc(Cl)cc1)N(Cc1ccccc1)Cc1ccco1,·,0.0
N#Cc1ccc(C(=O)Nc2ccn(-c3ccccc3)n2)cc1,-1.3,12.0
CN(C)CCNC(=O)c1ccc2c(c1)N(Cc1ccccc1)CCS2,·,15.0
COC(=O)C1CCN(C(=O)/C=C/c2ccccc2)CC1,·,-10.0
O=C(Cc1c[nH]c2ccccc12)OCC(=O)N1CCCCC1,·,-5.0
C=CCNc1ncnc2c1c(-c1ccccc1)cn2-c1cccc(C(F)(F)F)c1,-1.7,12.0
Cc1[nH]c2ccccc2c1SCCNC(=O)C1CC1,·,-13.0
O=C(C1CCCCC1)N(c1ccc2oc3c(c2c1)CCCC3)S(=O)(=O)c1cccs1,-2.3,2.0
Cc1ccc2ccccc2n1,·,-1.0
CCN(CC)CC(O)COC1C2CC3CC(C2)CC1C3 (centres undefined),·,-19.0
Cc1ccc(S(=O)(=O)Nc2nc(O)c(C3=c4ccccc4=NC3=O)s2)cc1,3.0,8.0
O=C1C(c2ccccc2)=C(c2ccccc2)C(=O)N1O,3.0,-11.0
Cc1ccc(OCC(O)CNCc2ccc(F)cc2)cc1 (centres undefined),·,24.0
O=C(Cn1cnc([N+](=O)[O-])n1)Nc1cc(Oc2cccc(C(F)(F)F)c2)cc([N+](=O)[O-])c1,-1.1,·
CC(=O)Oc1cccc(/C=c2/sc3nc(-c4ccc(F)cc4)nn3c2=O)c1,·,-9.0
Cc1cccc(-n2ncc(C(=O)NC3CC3)c2-n2cccc2)c1,·,9.0
O=C(N/N=C/c1c(Cl)cccc1Cl)N/N=C/c1c(Cl)cccc1Cl,-1.3,·
COc1ccc(-n2nc3c(c2NC(=O)C2CCCCC2)CSC3)cc1,·,16.0
Cc1c(CNCCc2cccs2)c(C(=O)O)c(C)n1Cc1c(F)cccc1Cl,-1.6,6.0
Cc1c(Cl)sn(-c2ccc(Cl)cc2)c1=O,8.0,11.0
COc1ccc(CCNC(=O)C(C#N)c2nc3ccccc3nc2N2CC(C)OC(C)C2)cc1OC (centres undefined),·,-98.0
CCCOc1ccc(Oc2nc(N(C)C)nc(N3CCCC3)n2)nn1,·,5.0
O=C(Nc1nnc(-c2ccccc2)s1)c1ccccc1C(F)(F)F,·,10.0
Nc1nnc(CCS(=O)(=O)c2cc(Cl)ccc2Cl)s1,2.0,-17.0
N#Cc1c(-c2cccs2)nc(Nc2ccccc2)[nH]c1=O,·,6.0
CCOC(=O)CC1(O)CCOC(C)(C)C1 (centres undefined),-1.3,7.0
COc1ccc(C2C3=C(CCCC3=O)OC3=C2C(=O)CCC3)c(OC)c1,0.4,·
CCCOc1ccc(C=Nc2ccc(N3CCN(C)CC3)cc2C)c(O)c1,·,-10.0
COc1cc2ncnc(NCCO)c2cc1OC,-1.7,·
COC(=O)c1ccc2c(c1)C(=O)/C(=C/c1ccc(O)cc1)O2,0.9,-2.0
O=C(c1sc(N2CCOCC2)nc1-c1ccccc1)c1c[nH]c2ccccc12,0.9,10.0
COc1ccc(C2=NC3(CCN(Cc4cccc(OC)c4)CC3)NC2=O)cc1,·,7.0
CCOC(=O)c1sc(CS(=O)(=O)c2ccccn2)nc1C,-1.2,·
Cc1nc2cc(-c3ccccc3)nn2c(C)c1CCC(=O)NC(C)c1ccc2c(c1)OCCO2 (centres undefined),·,5.0
O=C(O)c1nn(Cc2ccccc2)nc1C(=O)O,-0.7,-3.0
CC1=C(C(=O)OCC2CCCCC2)C(c2ccccc2OCc2ccccc2)NC(=O)N1 (centres undefined),-1.8,·
COc1ccc(N(C)C(=O)c2cn(C3CCCC3)c(=O)c3c2c2ccccc2n3C)cc1,4.8,10.0
Cc1ccc(-n2nnc(C(=O)NCC3CCCO3)c2N)cc1F (centres undefined),-2.2,3.0
Cc1ccccc1NC(=O)CSC1CCCCC1,5.6,14.0
COc1ccc(Nc2nc(N3CCN(S(C)(=O)=O)CC3)nc3ccccc23)cc1,·,-9.0
O=C(O)c1ccc(-c2ccc(Br)cc2)cc1,3.6,6.0
COc1ccccc1N(CC(=O)NCc1ccco1)S(C)(=O)=O,-0.2,14.0
COc1ccc(CNC(=O)CCC2CCCC2)cc1OC,·,-7.0
CCN(CC)CCCNc1nc2cc(OC)c(OC)cc2c2nc(-c3ccccc3)nn12,-12.6,74.0*
COc1ccc(C2CC(=O)N(c3ccccc3)C3=C2C(=O)OC3)cc1OC (centres undefined),3.0,-13.0
O=C1CCC(=O)N1CC(=O)N1N=C(c2ccc(Cl)cc2)CC1c1ccco1 (centres undefined),·,17.0
O=[N+]([O-])c1ccc(OCc2ccccc2)c(Cl)c1,1.4,·
N#Cc1cccc(NC(=O)CCc2nc(-c3cccs3)no2)c1,·,13.0
CCOc1ccc(NC(=S)N(Cc2cn(CC)c3ccccc23)C(C)C)cc1,-1.1,5.0
O=C(NC1=NCCCCCN1)c1ccccc1Cl,-1.5,12.0
COc1cc2nc(NC(=O)c3cccs3)sc(=O)c2cc1OC,·,-14.0
COCc1nnc(NC(=O)Cc2ccccc2)s1,-2.1,-9.0
Cc1nnc(NC2CC2)c2c1nnn2Cc1ccc(F)cc1,·,19.0
Cc1cccc(N(C)C(=O)CCn2ccc(C)n2)c1,·,1.0
CCn1c(=O)c2cc(C(=O)N3CCN(C(=O)c4ccco4)CC3)sc2c2ccccc21,·,-8.0
O=C(CSc1ncc(-c2ccc(Br)cc2)[nH]1)N1CCOCC1,·,-3.0
CCN(CC)c1ccc(C(=O)OCC(=O)c2ccco2)cc1,·,13.0
COc1ccc(OC(=O)c2cccnc2Oc2ccccc2)cc1,-0.2,·
CN(C)S(=O)(=O)Oc1ccc(C#N)cc1,0.0,·
Cc1ccccc1-n1c(N)cc(=O)n(Cc2cccs2)c1=O,·,-12.0

# Quoted at random: 3 records from the list, in no set order.
Structure,MgrA DNA FP,Sa helicase inh
NN1CC(=O)N(c2ccc(Cl)cc2)CC1=O,·,3.0
Cc1ccccc1-n1c(O)c(C=NCC2CCCO2)c(=O)[nH]c1=S (centres undefined),-0.2,14.0
CC(C)CCn1nnnc1CN1CCN(C(=O)c2ccco2)CC1,-1.1,1.0

# Next section.
Structure,MgrA DNA FP,Sa helicase inh
Cc1ccc(-c2cc(C(=O)N/N=C/C=C/c3ccccc3)n[nH]2)o1,·,16.0
CCN1C(=O)c2cccc3c(NC(C)=O)ccc1c23,2.9,-1.0
CC1N(C(=O)N(C)C)CCN1S(=O)(=O)c1ccccc1 (centres undefined),0.8,17.0
COC1C(OC)N(S(=O)(=O)c2ccc(C)cc2)CCN1S(=O)(=O)c1ccc(C)cc1 (centres undefined),-1.1,9.0
N#C/C(=C\c1ccc2c(c1)OCO2)c1ccccc1,-5.1,3.0
COC(=O)CSC1=C(C#N)C(c2ccccc2C)C2=C(CCCC2=O)N1 (centres undefined),·,-13.0
COc1ccc(-c2nnsc2N)cc1,-0.2,·
CN(CC(=O)N1CCCCC1)c1nnc(N2CCCC2=O)s1,·,34.0
CC(=O)OC(OC(C)=O)c1ccc([N+](=O)[O-])o1,-0.9,·
CCOc1ccc(CCNC(=O)C2=CCN(S(=O)(=O)c3ccc(F)cc3)CC2)cc1OCC,·,-2.0
ONc1nc2ccccc2nc1NO,21.2,6.0
COc1ccccc1CNC(=O)COC(=O)c1cccc2ccccc12,2.5,1.0
O=c1c2ccccc2oc2ncccc12,-0.4,·
Cc1ccc(-n2ncc3c(=O)n(C/C=C/c4ccccc4)cnc32)cc1C,·,-17.0
Nc1cc(C(F)(F)F)ccc1NCc1ccccc1,-0.9,-1.0

# Assay outcomes as filed in PubChem BioAssay.
